MLL AF4-AF9 inh – MLL-AF4/AF9 protein interaction inhibition; P42568; AlphaScreen, biotin-AF4 peptide binding to FLAG-AF9; actives 0.47% (n = 350,000); AID 651704; inhibition, % at 10 µM;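 active means every replicate reaching a set inhibition limit, whatever the replicate mean, cut at about 25% in these data; inconclusive means mean inhibition reaches that limit but some replicates miss it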;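 further: 0% = plate neutral control median and 100% = total signal loss; the record names both 10 and 1 µM as test concentration; the first replicate is given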
Target sequence (P42568 whole entry, looked up): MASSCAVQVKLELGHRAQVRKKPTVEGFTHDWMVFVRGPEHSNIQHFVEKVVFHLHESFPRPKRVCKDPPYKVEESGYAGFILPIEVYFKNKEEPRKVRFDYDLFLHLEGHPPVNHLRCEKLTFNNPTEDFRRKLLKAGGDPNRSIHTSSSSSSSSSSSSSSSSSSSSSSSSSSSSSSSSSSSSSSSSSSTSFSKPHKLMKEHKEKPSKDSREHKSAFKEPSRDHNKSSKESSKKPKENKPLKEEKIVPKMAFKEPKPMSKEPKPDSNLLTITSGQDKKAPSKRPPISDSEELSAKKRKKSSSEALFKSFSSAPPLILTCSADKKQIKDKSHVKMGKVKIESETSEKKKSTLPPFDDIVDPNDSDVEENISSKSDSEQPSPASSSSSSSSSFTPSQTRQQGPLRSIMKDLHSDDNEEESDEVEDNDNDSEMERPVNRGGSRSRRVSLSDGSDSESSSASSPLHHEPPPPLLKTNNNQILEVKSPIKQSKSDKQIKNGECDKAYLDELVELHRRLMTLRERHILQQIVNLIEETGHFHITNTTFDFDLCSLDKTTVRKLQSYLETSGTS
Ecoli rRNA inh – inhibitors of bacterial rRNA selective over humanized ribosomes | E. coli WT GFP vs humanized-ribosome RFP mutants, fluorescence, 24 h; hits give low values; DMSO median 0, no signal -100 | GFP signal change (wild-type ribosome), % (no concentration beside the values) | actives 1.6% (n = 350,000) | AID 720706;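 active means significant combined selectivity score with lowered wild-type GFP, culture density cut under 30%, mutant RFP and density less affected; inactive means any of these conditions unmet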; further: one replicate is shown; some compounds called inactive have numbers as strong as hits
Ecoli rRNA inh OD600 – recorded beside Ecoli rRNA inh, whose call it bears; OD600 change, %; measured here: OD600 growth;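 optical density of the mix in the first replicate; 0 = DMSO median and -100 = no signal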
Ecoli rRNA inh RFP – recorded beside Ecoli rRNA inh, whose call it bears; RFP signal change, %; measured here: RFP humanized mutant strains;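 first replicate; 0 = DMSO median and -100 = no signal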
Numbers without * were called inactive; u = inconclusive; & = joins results of further samples.

mol | MLL AF4-AF9 inh | Ecoli rRNA inh | Ecoli rRNA inh OD600 | Ecoli rRNA inh RFP
COc1ccccc1-c1ccc2c(c1)O[C@H](CN(C)C(=O)c1ccccc1)[C@@H](C)CN([C@@H](C)CO)S2(=O)=O | 5.2 | -10.1 | -18.0 | 2.3
CC(C)NC(=O)Nc1ccc2c(c1)C(=O)N([C@H](C)CO)C[C@H](C)[C@H](CN(C)C(=O)NC1CCCCC1)OCCCC[C@@H](C)O2 | -0.6 | 3.0 | 0.5 | -0.7
COc1cccc(C#Cc2ccc([C@@H]3[C@H](CO)N4C(=O)CN(S(=O)(=O)c5ccccc5C)C[C@@H]34)cc2)c1 | -2.9 | 1.0 | 11.9 | -3.0
O=C(Nc1ccccc1F)N1CC(=O)N2[C@H](CO)[C@@H](c3ccc(-c4cccnc4)cc3)[C@H]2C1 | -7.2 | 2.4 | 2.1 | -2.4
CCCNC(=O)C[C@@H]1C[C@@H]2c3cc(NC(=O)CC4CC4)ccc3O[C@@H]2[C@H](CO)O1 | 0.0 | 3.2 | 7.8 | 1.2
CN1CCC(N2CCN(C3CN(C4CCCCC4)S(=O)(=O)C3)CC2)CC1 (configuration not stated) | -5.9 | -4.6 | 4.2 | -4.0
C[C@@H]1CN([C@@H](C)CO)S(=O)(=O)c2ccc(C#Cc3cccnc3)cc2O[C@@H]1CN(C)C(=O)CN(C)C | -16.8 | 5.3 | 9.5 | 0.6
COc1ccc(NC(=O)N(C)C[C@H]2OCCCC[C@@H](C)Oc3ccc(NC(=O)NC4CCCCC4)cc3C(=O)N([C@H](C)CO)C[C@H]2C)cc1 | 1.0 | -1.7 | -2.1 | -2.7
O=C(Nc1ccccc1)N1C[C@@H]2[C@H](c3ccccc31)[C@@H](CO)N2Cc1ccccc1Cl | 1.4 | -5.6 | -14.2 | -0.3
C[C@@H]1CN([C@H](C)CO)C(=O)c2cccc(NS(=O)(=O)c3ccc(Cl)cc3)c2O[C@@H]1CN(C)Cc1ccc(C(=O)Nc2ccccc2N)cc1 | 6.0 | -1.6 | -1.3 | 0.0
C[C@@H]1CN([C@@H](C)CO)C(=O)c2cc(NC(=O)CCC(F)(F)F)ccc2O[C@H]1CN(C)S(C)(=O)=O | -4.0 | 5.1 | 12.0 | -0.8
O=C(C[C@H]1CC[C@H]2[C@@H](COC[C@H](O)CN2C(=O)c2ccccc2)O1)N1CCOCC1 | -4.4 | -1.1 | 9.7 | 10.7
COc1ccc(NC(=O)N(C)C[C@H]2Oc3ccc(NC(=O)CCCCCC(=O)Nc4ccccc4N)cc3CC(=O)N([C@@H](C)CO)C[C@H]2C)cc1 | -0.7 | 0.4 | 9.4 | -1.2
C[C@@H]1CN([C@H](C)CO)C(=O)Cc2cc(NS(=O)(=O)c3ccccc3)ccc2O[C@@H]1CN(C)S(=O)(=O)c1ccccc1 | -5.1 | -3.2 | -2.9 | 1.0
Cc1noc(C)c1NC(=O)N(C)C[C@H]1Oc2c(NC(=O)Nc3ccc(C(F)(F)F)cc3)cccc2C(=O)N([C@@H](C)CO)C[C@H]1C | 0.2 | -3.0 | -14.5 | 0.8
CCC(=O)N(C)C[C@H]1Oc2cc(-c3cccc(OC)c3)ccc2S(=O)(=O)N([C@@H](C)CO)C[C@@H]1C | 0.5 | -6.9 | -18.4 | -2.2
Cc1noc(C)c1NC(=O)Nc1ccc2c(c1)C(=O)N([C@H](C)CO)C[C@H](C)[C@@H](CN(C)C(=O)Nc1ccc3c(c1)OCO3)OCCCC[C@@H](C)O2 | -0.4 | -37.4* | -8.0* | 4.0*
C[C@H]1CN([C@@H](C)CO)C(=O)Cc2cc(NC(=O)Cn3cnnn3)ccc2O[C@H]1CN(C)CC1CCCCC1 | 1.3 | 3.4 | 2.3 | 0.9
O=C(c1cccc(F)c1)N1CC(=O)N2[C@@H](CO)[C@@H](c3ccc(C4=CCCC4)cc3)[C@@H]2C1 | -4.4 | 3.2 | 12.1 | 5.3
CCC(=O)Nc1ccc2c(c1)C(=O)N(C)C[C@H](OC)[C@H](C)CN(CCc1ccccc1)[C@@H](C)CO2 | 1.6 | -0.5 | 7.5 | 0.3
COc1ccc(S(=O)(=O)Nc2ccc3c(c2)C(=O)N([C@@H](C)CO)C[C@@H](C)[C@@H](CN(C)C(=O)Nc2ccc4c(c2)OCO4)OCCCC[C@@H](C)O3)cc1 | 4.9 | -0.9 | 2.5 | -5.8
COc1ccc(CN(C)C[C@@H]2Oc3ccc(NC(=O)Nc4ccccc4)cc3C(=O)N([C@H](C)CO)C[C@H]2C)cc1 | -3.7 | -1.6 | -6.9 | -0.1
CN(C)CCN1CCN(C2CN(Cc3cn(Cc4ccc(F)cc4)nn3)S(=O)(=O)C2)CC1 (configuration not stated) | 1.7 | 2.6 | -1.1 | -3.7
CN(C)C(=O)C[C@@H]1CC[C@H](NC(=O)C2CC2)[C@H](CO)O1 | 2.1 | 1.8 | -7.8 | 1.1
C[C@@H]1CN([C@@H](C)CO)C(=O)Cc2cc(NC(=O)Nc3ccccc3)ccc2O[C@H]1CN(C)C(=O)NC1CCCCC1 | 2.6 | -3.2 | -17.4 | -2.2
COC(=O)c1ccc2nc(-c3ccc(Cl)cc3)c(Cc3cccc(Cl)c3)n2c1 | -1.0 | -23.0 | -36.9 | 4.2
O=C(NCC1CC1)[C@H]1[C@H](CO)[C@H]2Cn3c(ccc(-c4ccncc4)c3=O)[C@@H]1N2Cc1nccs1 | -0.3 | 3.5 | 8.2 | -2.2
O=C(NCC[C@@H]1CC[C@@H](NC(=O)c2ccccc2F)[C@H](CO)O1)c1ccc2c(c1)OCO2 | 0.1 | 0.2 | 0.2 | -1.3
C[C@@H]1CN([C@@H](C)CO)C(=O)c2cc(NS(=O)(=O)c3cn(C)cn3)ccc2O[C@@H](C)CCCCO[C@@H]1CN(C)Cc1ccncc1 | -3.7 | 3.8 | 3.8 | 0.1
COC(=O)c1ccc2nc(-c3cccc(Cl)c3)c(Cc3ccccc3)n2c1 | -0.8 | -7.0 | 3.0 | 6.7
O=C(C1CCCC1)N1[C@@H](CO)[C@@H](c2ccccc2)C12CN(Cc1ccc(F)cc1)C2 | 2.7 | -5.5 | -4.9 | -0.9
COc1cccc(NC(=O)C[C@@H]2CC[C@@H]3[C@H](COc4ccc(NC(=O)C5CCC5)cc4C(=O)N3C)O2)c1 | -1.2 | -0.4 | 1.2 | 1.0
O=C(NC1CCCCC1)[C@@H]1[C@@H](CO)[C@@H]2Cn3c(cccc3=O)[C@@H]2N1C(=O)CC1CC1 | -2.7 | 3.5 | 2.0 | -1.9
COc1ccc(S(=O)(=O)N2C[C@@H](O)COC[C@@H]3O[C@@H](CC(=O)NCc4ccc(Cl)c(Cl)c4)CC[C@H]32)cc1 | 4.2 | -19.4 | -54.0 | 7.3
C[C@@H]1CN([C@H](C)CO)C(=O)c2cc(NS(=O)(=O)c3cccs3)ccc2O[C@@H](C)CCCCO[C@@H]1CN(C)Cc1ccc(Cl)c(Cl)c1 | 0.0 | 3.8 | 0.6 | 2.0
CCCOc1c(Br)cc(C(=O)OCc2cc(=O)n3ccsc3n2)cc1OC | -1.8 | 17.6 | 16.1 | 1.5
CCC(=O)N1C[C@@H](C)[C@H](OC)CN(C)C(=O)c2cc(NC(=O)C3CC3)ccc2OC[C@H]1C | -0.2 | 1.7 | 2.7 | -1.6
CCC(=O)N1Cc2cc(C(=O)NCC(F)(F)F)nc(-c3cccc(-c4cncnc4)c3)c2[C@H]1CCO | -0.9 | 3.8 | 19.1 | -0.6
C[C@@H]1CN([C@@H](C)CO)C(=O)c2cccc(NC(=O)CCCCCC(=O)Nc3ccccc3N)c2O[C@@H]1CN(C)C(=O)Nc1cccc2ccccc12 | -1.7 | 5.9 | 2.3 | 3.7
C/C=C/c1ccc([C@H]2[C@H](CO)N3CCCCN(S(=O)(=O)c4cccc(C)c4)C[C@@H]23)cc1 | -2.1 | -58.3 | -73.5 | -8.5
COCC(=O)N(C)C[C@@H]1Oc2ncc(C#Cc3ccncc3)cc2C(=O)N([C@@H](C)CO)C[C@@H]1C | -2.7 | 7.2 | 13.6 | 1.5
OC[C@@H]1[C@@H](c2ccc(C#Cc3ccccc3F)cc2)[C@@H]2CN(CC3CCOCC3)CCCCN12 | 13.0 | -3.6 | -26.8 | 12.2
C[C@@H]1CN([C@@H](C)CO)C(=O)Cc2cc(N(C)C)ccc2O[C@@H]1CN(C)Cc1ccc(C(F)(F)F)cc1 | u | 0.0 | -0.2 | -0.7
COc1ccc2c3c([nH]c2c1)[C@H](CO)N(C(C)=O)CC31CN(Cc2ccccc2Cl)C1 | 26.3* | -8.8 | -27.1 | -6.0
CO[C@@H]1CC[C@@H]2CCOc3c(C#N)cccc3C(=O)N(C)C[C@@H](c3ccccc3)CC(=O)N(C)C[C@H]1O2 | -3.0 | 3.9 | 12.8 | 0.3
Cc1cc(C(=O)Nc2cccc3c2O[C@@H](CN(C)S(=O)(=O)c2ccc(Cl)cc2)[C@H](C)CN([C@H](C)CO)C3=O)n(C)n1 | -26.0 | 1.7 | -3.6 | -0.5
CCCN(C)C[C@@H]1Oc2cc(C#CC3CC3)ccc2S(=O)(=O)N([C@@H](C)CO)C[C@@H]1C | 1.5 | 7.6 | -4.7 | 3.8
CCOC(=O)[C@]12CCC=C1N(CCC1=CCCCC1)C(=O)[C@H](CC(=O)NCc1ccc(OC)c(OC)c1)C2 | -0.8 | 2.2 | 1.9 | 1.0
CCCNC(=O)N1C[C@@H](O)COC[C@H]2O[C@@H](CC(=O)N[C@@H]3CCN(Cc4ccccc4)C3)CC[C@@H]21 | -7.0 | 3.4 | 8.7 | -4.0
CCCNC(=O)N1CC2(C1)CN(C(=O)COC)[C@@H](CO)c1c2c2ccc(OC)cc2n1C | -1.0 | 4.3 | 14.2 | -2.9
O=C(Nc1ccc(F)cc1)N1[C@@H]2CNC[C@H]1C2c1ccc(/C=C/c2ccccc2)cc1 (some centres not stated) | 12.4&1.9 | -60.2&-59.0 | -75.3&-78.4 | -13.0&-16.0
COCC(=O)N1CC(=O)N2[C@H](CO)[C@H](c3ccc(C#CCc4ccccc4)cc3)[C@@H]2C1 | -4.0 | 0.5 | 17.9 | -3.6
C[C@@H]1CN([C@@H](C)CO)C(=O)Cc2cc(NC(=O)Nc3ccc(F)cc3)ccc2O[C@H]1CN(C)Cc1ccc(-c2ccccc2)cc1 | -12.6 | -0.9 | 6.4 | 3.1
CC(C)C#Cc1ccc2c(c1)O[C@H](CN(C)C(=O)C1CC1)[C@H](C)CN([C@@H](C)CO)S2(=O)=O | 0.5 | -2.6 | 10.6 | -0.5
COC(=O)[C@]12C[C@H](CC(=O)N3CCOCC3)C(=O)N(CCC3=CCCCC3)C1=C[C@H](C(C)(C)C)O[C@@H]2C | 1.3 | 2.3 | 0.9 | -3.0
Cc1ccc(S(=O)(=O)N(C)C[C@@H]2Oc3ccc(NC(=O)CCN4CCOCC4)cc3C(=O)N([C@H](C)CO)C[C@@H]2C)cc1 | 1.1 | 0.5 | 8.0 | -0.2
Cc1ccc(S(=O)(=O)Nc2ccc3c(c2)C(=O)N([C@@H](C)CO)C[C@H](C)[C@@H](CN(C)C(=O)CCC(F)(F)F)OCCCC[C@@H](C)O3)cc1 | -1.7 | -0.4 | -11.2 | 3.3
O=C(C[C@H]1CC[C@H](NC(=O)CN2CCOCC2)[C@@H](CO)O1)NCCc1ccncc1 | 0.1 | 4.0 | 1.4 | -0.9
COCC(=O)N(C[C@@H]1N[C@H](CO)[C@H]1c1ccc(-c2cccnc2)cc1)C(C)C | -2.2 | 3.1 | 6.1 | -1.9
C[C@@H]1CN([C@H](C)CO)C(=O)c2cccc(NC(=O)Nc3ccccc3)c2O[C@H]1CN(C)C | -3.6 | -4.1 | 3.6 | -0.1

Retrieved one by one from the list above, five records:
mol | MLL AF4-AF9 inh | Ecoli rRNA inh | Ecoli rRNA inh OD600 | Ecoli rRNA inh RFP
CCCN(C)C[C@@H]1Oc2cc(C#CC3CC3)ccc2S(=O)(=O)N([C@@H](C)CO)C[C@@H]1C | 1.5 | 7.6 | -4.7 | 3.8
COCC(=O)N(C)C[C@@H]1Oc2ncc(C#Cc3ccncc3)cc2C(=O)N([C@@H](C)CO)C[C@@H]1C | -2.7 | 7.2 | 13.6 | 1.5
COCC(=O)N1CC(=O)N2[C@H](CO)[C@H](c3ccc(C#CCc4ccccc4)cc3)[C@@H]2C1 | -4.0 | 0.5 | 17.9 | -3.6
COC(=O)[C@]12C[C@H](CC(=O)N3CCOCC3)C(=O)N(CCC3=CCCCC3)C1=C[C@H](C(C)(C)C)O[C@@H]2C | 1.3 | 2.3 | 0.9 | -3.0
CO[C@@H]1CC[C@@H]2CCOc3c(C#N)cccc3C(=O)N(C)C[C@@H](c3ccccc3)CC(=O)N(C)C[C@H]1O2 | -3.0 | 3.9 | 12.8 | 0.3

Next part
mol | MLL AF4-AF9 inh | Ecoli rRNA inh | Ecoli rRNA inh OD600 | Ecoli rRNA inh RFP
COc1ccc(NC(=O)Nc2cccc3c2O[C@@H](CN(C)C(=O)Nc2c(C)noc2C)[C@H](C)CN([C@@H](C)CO)C3=O)cc1 | -9.6 | 0.7 | 3.2 | 0.4
Cc1ccccc1S(=O)(=O)NC(=O)C1(C)CCN1C(=O)C1CCCCC1 (configuration not stated) | -1.0 | 13.7 | 13.2 | 0.7
C[C@@H]1CCCCO[C@@H](CN(C)C(=O)Nc2ccccc2)[C@@H](C)CN([C@H](C)CO)C(=O)c2cc(NC(=O)CCC(F)(F)F)ccc2O1 | -2.8 | 5.4 | 10.3 | 1.1
C[C@@H]1CN([C@@H](C)CO)S(=O)(=O)c2ccc(C3=CCCC3)cc2O[C@@H]1CN(C)C(=O)C1CCC1 | -2.8 | -3.5 | -11.4 | 8.1

Some of the compounds tested; the hit share may differ from the screen's.
